From PubChem
VACV mCherry inh: inhibitors of vaccinia virus infection (mCherry reporter signal); Potency, µM (doses to about 36.5 µM), for inactives: top-dose activity change, negative = inhibition, usual class: inhibitors; 0.63% of 310,000 active; Vaccinia virus mCherry reporter infection, fluorescence; about a quarter of the inactives have no number; AID 720579; active = well fitted inhibition curve with a large enough effect; inconclusive = small, poorly fitted or top-dose-only effect; inactive = no such curve, though single readings can be large or run the other way; tested in A549 cells; further: nearly all actives have a fitted effect of over 35% in size; inactives centre near -10
Vaccinia Venus: vaccinia inhibition (Venus reporter); Potency, µM (titrated, usually from 36.5 µM), for inactives: at the top dose activity change, negative = inhibition, actives largely listed as inhibitors; Vaccinia virus Venus reporter expression, fluorescence; 0.46% of 330,000 active; active means well fitted inhibition curve with a large enough effect; inconclusive means small, poorly fitted or top-dose-only effect; inactive means no such curve, though single readings can be large or run the other way; tested in A549 cells; further: nearly all actives have a fitted effect of over 30% in size; inactives centre near -10
The depositor's hits bear a star; i = inactive; ? = inconclusive; . = not tested or not shown; & = joins results of further samples; [ ] = remark or other dose. On the % scale 0 is the no-effect control and ±100 the full control effect; potency means the concentration at half of the fitted maximal effect.

SMILES | VACV mCherry inh | Vaccinia Venus
Cc1cc2oc(C(=O)N(Cc3ccco3)Cc3ccccc3Cl)c(C)c2cc1C | i | -1.1%
CCOC(=O)[C@@H](C)N(Cc1ccc(OC)cc1)S(=O)(=O)N(Cc1ccccc1)[C@H](C(=O)OC)C(C)C | -24.1%&-18.8% | ?
COc1cc(=O)n2c(c1C(=O)N(C)Cc1ccsc1)CCN(Cc1cnn(C)c1C)CC2 | i | -7.0%
CC(C)(C)c1ccc(OCc2cc(=O)n3c4c(sc3n2)CCCC4)cc1 | 7.2% | 0.2%
CCOC(=O)c1cccc(NC(=O)CSc2cc(=O)n(C)c3ccccc23)c1 | -4.4% | 5.5%
COc1ccc(OC)c(NC(=O)CSc2nnc(C3CCCCC3)n2-c2ccccc2)c1 | -6.8% | -25.5%
COCCCNC(=O)C1CCC(CNS(=O)(=O)c2ccc(Cl)cc2)CC1 (centres undefined) | -20.4% | -21.9%
O=c1[nH][nH]c(-c2ccccc2O)c1C(C[N+](=O)[O-])c1ccc(Cl)cc1Cl (centres undefined) | i | -7.2%
Cn1c(=O)c2c(nc(SCC(=O)Nc3ccc(F)c(F)c3)n2Cc2ccccc2F)n(C)c1=O | -12.8% | -16.2%
CSc1ncc2ncn(C3OC(CO)C(O)C3O)c2n1 (centres undefined) | 9.7% | -6.6%
Cc1cc(N2CCN(C)CC2)nc2ccc(NC(=O)Nc3ccc(F)cc3F)cc12 | -10.5% | -8.3%
O=C(Nc1ccc2nc(C3CC3)n(Cc3ccc(F)cc3)c(=O)c2c1)c1ccco1 | ? | ?
Cc1ccc(-c2csc(NC(=O)C3CC(=O)N(Cc4ccco4)C3)n2)cc1 (centres undefined) | i | -11.3%
CCC(=O)OCC(=O)Nc1ccc([N+](=O)[O-])cc1OC | -16.5% | -0.3%
COc1cccc(NC(=O)CSC2=NN3CCCC(=O)N=C3S2)c1 | -7.3% | -19.1%
Cc1[nH]c2ccccc2c1C(c1ccccc1)c1cccs1 (centres undefined) | -11.6% | -5.5%
O=C(Nc1cccc(-c2nc3ccccc3o2)c1)c1cccnc1 | -18.1% | -16.7%
CCOc1ccc(S(=O)(=O)c2c(C(=O)c3ccc(C)c(C)c3)cnc3ccccc23)cc1 | -14.5% | -9.6%
CC(C)(C)[C@H]1COC(=O)[C@@H](Cc2ccc(F)cc2)CC/C=C/C[C@@H](CC(=O)N[C@H](CO)Cc2ccccc2)C(=O)N1 | -22.5% | ?
Cc1cc(Cl)ccc1OCC(=O)N1CCN(C)CC1 | . | -9.0%
CCCN(C(=O)COC(=O)CC1CCCCC1)c1c(N)n(Cc2ccccc2)c(=O)[nH]c1=O | -20.4% | -6.0%
O=C(NNS(=O)(=O)c1ccc(Cl)cc1)NC1CCCCC1 | . | 3.6%
C=CCNC(=O)c1cc(Cl)ccc1[N+](=O)[O-] | -13.9% | -17.7%
COc1ccc(C2C(C(=O)N3CCC(C)CC3)c3ccccc3C(=O)N2C)cc1 (centres undefined) | -5.3% | 0.5%
COc1cccc(/C=N/NC(=O)CN2CC(c3ccccc3)CC2=O)c1OC (centres undefined) | -5.2% | -9.2%
CCn1c(C)nc2cc(C(=O)NNC(=O)CCC3CCCCC3)ccc21 | -8.7% | -1.9%
CCN1C(=O)[C@H]2[C@@H](c3ccc(OC)cc3)N[C@]3(CCCN(Cc4ccc(F)cc4)C3=O)[C@H]2C1=O | ? | -15.5%
COc1ccccc1OCC#CCN1CCCC1 | i | -4.7%
CC(C)(C)c1ccc(C(=O)N2CCC3(CC2)CC3C(=O)NCCc2ccccn2)cc1 (centres undefined) | -14.6% | -8.5%
Nc1ccccc1SCC(O)Cn1ccc2ccccc21 (centres undefined) | i | -21.1%
COc1ccc(-c2c(C(C)=O)c(C)n(C)c2C)cc1 | -2.0% | -11.8%
COc1ccc(Cc2noc(CN3CCCC(C(=O)c4cccs4)C3)n2)cc1OC (centres undefined) | i | -8.2%
COC(=O)c1ccc2c(c1)NC1=C(C(=O)CC(C)(C)C1)C(c1ccncc1)N2 (centres undefined) | -14.8% | -4.2%
COCCCNC(=O)CC[C@H]1O[C@@H](n2cnc3c(NC(=O)c4ccccc4)ncnc32)[C@H](O)[C@@H]1O | 54.1%[activator] | 3.7%
O=C(CNC(=O)c1cccc(Cl)c1)Nc1ccc(Br)cc1C(=O)c1ccccc1 | -5.3% | -16.4%
CC1SCC(=O)N(CC(=O)NCCc2ccccc2)C1=O (centres undefined) | 5.0% | -3.3%
COc1ccc(Cc2nc3ccc(C(=O)NCCCN4CCN(C)CC4)cc3o2)cc1 | i | -9.8%
CCOc1nc2ccccc2cc1/C=C/C(=O)O | i | -1.8%
CCC(=O)N1c2ccccc2CC1C(=O)NCCc1ccc(Cl)cc1 (centres undefined) | -13.9% | -4.1%
Cc1ccc(CCNC(=O)c2c3c(nc4ccccc24)C(=O)N(C2CCCCC2)C3)cc1 | -14.5% | -15.1%
CC(=O)Nc1ccc(SCCCC(=O)c2ccccc2)cc1 | ? | -10.3%
CC(C)c1cccc(-c2csc(C(O)c3cccc(Cl)c3)n2)c1 (centres undefined) | ? | -24.9%
COc1ccc(CNC(=O)CCS(=O)(=O)Cc2ccc(C)cc2)c(OC)c1 | -25.2% | -15.7%
CC(C)c1ccc(NC(=O)CCNC(=O)N2C[C@H]3C[C@@H](C2)c2cccc(=O)n2C3)cc1 | 1.7% | 1.0%
Cc1ccc(NC(=O)COC(=O)c2cccnc2)cc1 | -11.6% | -13.8%
COc1ccccc1CNC(=O)CSc1nc2c(oc3ccccc32)c(=O)n1CC1CCCO1 (centres undefined) | i | -8.0%
CCc1ccc(-n2c(=O)c3cccnc3n2CC(=O)NCc2ccccc2)cc1 | -7.1%[7.34 µM] | -1.4%[7.34 µM]
CCOCCCNc1ncnc2onc(C)c12 | -12.6% | -7.3%
Cc1cc(C)cc(SCc2noc(C(=O)NCCC(C)C)c2C(=O)NCCC(C)C)c1 | -23.2% | -5.4%
CCOC(=O)c1c(O)c2ccccc2n(CC)c1=O | -0.5% | 0.0%
COc1ccc(CNc2nc3nc(C)c(Cl)c(C)n3n2)cc1 | i | -10.9%
Cc1cccc(NC(=O)CN2C(=O)NC3(CCCCCCC3)C2=O)c1C | ? | -29.7%
C=C(C)c1cccc(C(C)(C)NC(=O)Nc2ccccc2OCC)c1 | -5.9% | -12.1%
COc1cccc(Oc2ccc(C(F)(F)F)cc2N)c1 | -28.0% | ?
Cc1c(NC(=O)CSc2nnc(-c3ccccc3F)o2)c(=O)n(-c2ccccc2)n1C | i | 0.3%
CC1(c2ccc(OC(F)F)cc2)NC(=O)N(CC(=O)Nc2cccc(F)c2)C1=O (centres undefined) | -9.6% | -12.8%
COc1ccccc1/C=C\C=N\n1c(-c2ccc(Cl)cc2Cl)n[nH]c1=S | -14.1% | 3.5%
COc1cc(OC)cc(-c2nnc(SCc3cccnc3)o2)c1 | ? | ?
O=C(c1ccc(-c2ccccc2Cl)o1)N1CCCCCCC1 | -22.8% | -16.7%
CCN(CC)C(=O)C(=O)Nc1cc(C(F)(F)F)ccc1Cl | -28.8% | -24.1%

Another view of part of the listing above.
| canonical_smiles | VACV mCherry inh | Vaccinia Venus |
| --- | --- | --- |
| C=C(C)c1cccc(C(C)(C)NC(=O)Nc2ccccc2OCC)c1 | -5.9% | -12.1% |
| CCN(CC)C(=O)C(=O)Nc1cc(C(F)(F)F)ccc1Cl | -28.8% | -24.1% |
| Cc1cc(C)cc(SCc2noc(C(=O)NCCC(C)C)c2C(=O)NCCC(C)C)c1 | -23.2% | -5.4% |
| COc1ccccc1/C=C\C=N\n1c(-c2ccc(Cl)cc2Cl)n[nH]c1=S | -14.1% | 3.5% |
| Cc1c(NC(=O)CSc2nnc(-c3ccccc3F)o2)c(=O)n(-c2ccccc2)n1C | i | 0.3% |
| COc1cc(OC)cc(-c2nnc(SCc3cccnc3)o2)c1 | ? | ? |

(cont.)
SMILES | VACV mCherry inh | Vaccinia Venus
CCN(CC)C(=O)C1=C(C)N(CCCOC)C(=O)C(CC(=O)NC2CCCC2)C1 (centres undefined) | -13.7% | -6.7%
CCN(CC)CCCCCCCCOC(=O)c1cc(OC)c(OC)c(OC)c1 | ? | ?
Cc1c(C(=S)Nc2ccccc2)cnn1-c1ccc([N+](=O)[O-])cc1 | -28.0% | -20.6%
COc1ccc(NC(=O)CCSc2ccc3ccccc3n2)cc1 | 2.7% | 2.3%
COc1ccc([N+](=O)[O-])cc1NC(=O)c1cn(-c2ccc(Cl)cc2)c(=O)c2ccccc12 | -4.7% | -19.4%
COCCNC(=O)/C(C#N)=C/c1nc(N(C)C)n(-c2ccc(F)cc2)c1Cl | ? | ?
CCOC(=O)c1c(NS(=O)(=O)c2ccccc2)n(CCCOC)c2nc3ccccc3nc12 | ? | -26.7%
CC(=O)Nc1ccc(NC(=O)CSc2ccccn2)cc1 | -10.9% | -8.0%
CC(C)/C(=N/Nc1ccccc1[N+](=O)[O-])c1ccccc1 | i | 1.1%
Cc1ccc(NC(=O)Cn2nnc(-c3nc(-c4ccncc4)no3)c2N)cc1 | -5.0% | -2.8%
CCOc1cc2c(cc1OCC)C(C(=O)O)C(c1ccc(OC)c(O)c1)N(C)C2=O (centres undefined) | -8.7% | -1.5%
CCC(C(=O)Nc1nc(C)cs1)c1ccccc1 (centres undefined) | -12.6% | -17.0%
CCOCCCNC(=O)/C(C#N)=C/c1ccc(-c2ccc(S(=O)(=O)N3CCOCC3)cc2)o1 | i | -15.0%
Cc1cc2cc(CN(CC3CCCO3)C(=O)c3cnccn3)c(=O)[nH]c2cc1C (centres undefined) | . | -7.1%
CCC1(CC)C(=O)C(C)(C)C(=O)OC1c1ccccn1 (centres undefined) | . | -8.9%
Cc1[nH]c2ccccc2c1CCN(Cc1cccnc1)C(=S)Nc1ccc(F)cc1 | ? | -22.7%
O=C(Nc1cccc([N+](=O)[O-])c1)C1C2CC/C=C\CCC21 (centres undefined) | -7.1%[7.34 µM] | -6.3%[7.34 µM]
Cc1ccc(NC(=O)c2oc3ccccc3c2COC(C)C)cc1S(=O)(=O)N1CCOCC1 | ? | -11.9%
CCOc1ccc(Br)cc1-c1noc(-c2cccs2)n1 | . | 4.3%
CCOC(=O)c1cc(-c2ccc(C)o2)nn1CCC#N | . | -19.9%
O=C(c1ccco1)N1CCN(C2CC(=O)N(c3ccc(F)c(Cl)c3)C2=O)CC1 (centres undefined) | -24.6% | 3.7%
O=C(CSc1ncnc2c1nnn2-c1ccc(F)cc1)NCc1ccco1 | . | -24.6%
CN(C)CCCCCNCCCNC(=O)/C=N\O | i | -8.3%
CC(C)C(=O)N1CCC1(C)C(=O)Nc1ccc2cn[nH]c2c1 (centres undefined) | 35.4% | 4.2%
C=C1CCN([C@@H](CC(C)C)C(=O)Nc2ccc(OC)cc2)S(=O)(=O)c2ccccc21 | -9.2% | -7.1%
COc1ccc(NC(C)=O)cc1S(=O)(=O)NCc1ccc2c(c1)OCO2 | -14.8% | -9.0%
CCOc1ccc(/C=C/C(=O)N(CC)CC(=O)Nc2ccc3c(c2)OCCO3)cc1OCC | -14.3% | -19.1%
CC(CCC(C)[n+]1cccc(C#N)c1)[n+]1cccc(C#N)c1 (centres undefined) | 38.6%[activator] | -5.7%
O=C(COC(=O)c1cc(-c2cccs2)nn1-c1ccccc1)Nc1cccc([N+](=O)[O-])c1 | i | -15.9%
CCOC(=O)c1nc2ccc(C)cc2c2c1C1CC(c3c(Cl)cccc31)N2C(=O)OCc1ccccc1 (centres undefined) | -23.8% | -27.8%
O=C(N[C@@H](Cc1ccccc1)C(=O)O)c1cccnc1 | 4.2% | -8.0%
CC1(C)Oc2ccc3ccc(=O)oc3c2/C(=C/NCCO)C1=O | . | -10.8%
COc1ccc(NC(=O)c2coc(=O)c3ccccc23)cc1OC | 4.2% | -5.8%
Cc1[nH]c(=O)[nH]c(=O)c1S(=O)(=O)N1CCCCC1 | 14.3% | 4.1%
O=S(=O)(N[C@@H]1C[C@H]2CC[C@@H]1C2)c1cccs1 | -10.0% | -5.6%
C/C(=N\N=c1/scc(C)n1Cc1ccco1)c1cccc([N+](=O)[O-])c1 | i | -17.6%
CCN(C(=O)COC(=O)CCC1CCCC1)c1c(N)n(Cc2ccccc2)c(=O)[nH]c1=O | i | -14.5%
O=C(Nc1ccccc1)Nc1ccc2ccccc2c1 | -11.5% | -6.6%
Cc1nn(-c2ccccc2)c(C)c1C(=O)OC(C)C(=O)Nc1ccc(C(N)=O)cc1 (centres undefined) | i | -19.3%
O=C(O)CC(NC(=O)C12CC3CC(CC(C3)C1)C2)c1cc([N+](=O)[O-])ccc1Cl (centres undefined) | 4.0% | -2.3%
CSc1ccc(NC(=O)N2CC=C(n3c(=O)[nH]c4ccccc43)CC2)cc1 | -16.1% | -29.5%
Cc1cc([N+](=O)[O-])nn1CC(=O)N1c2ccccc2CC1C (centres undefined) | -9.9% | -7.6%
O=C(CSc1nc2c([nH]c3ccccc32)c(=O)n1-c1cccc(Cl)c1)NCC1CCCO1 (centres undefined) | -0.7% | -1.5%
Nc1ccc(-c2nnn(Cc3ccccc3)n2)cc1 | i | 0.6%
Cc1ccc(N2C(=O)/C(=C\c3ccc(C(C)C)cc3)N=C2SC2CCOC2=O)cc1 (centres undefined) | -21.0% | -1.6%
CCOc1ccc(CN(C)C(=O)c2cc3ccccc3o2)cc1OC | -8.2% | 1.1%
O=c1c2ccccc2nc(/C=C/c2ccccc2)n1CCc1ccccc1 | i | -4.7%

2 entries from above in a different format:
SMILES	VACV mCherry inh	Vaccinia Venus
CCN(C(=O)COC(=O)CCC1CCCC1)c1c(N)n(Cc2ccccc2)c(=O)[nH]c1=O	i	-14.5%
O=c1c2ccccc2nc(/C=C/c2ccccc2)n1CCc1ccccc1	i	-4.7%

Compounds were not picked by outcome (roughly 0.82% active in at least one column).
